Ecoli rRNA inh: reduced GFP signal of wild-type E. coli, primary screen, bacterial rRNA inhibitor project, GFP/RFP fluorescence, OD600, single point; GFP signal change (wild-type ribosome), % (concentration not given with the values); E. coli WT GFP vs humanized-ribosome RFP mutants, 24 h; hits give low values; DMSO median 0, no signal -100; 350,000 tested, 1.6% active;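 active = significant combined selectivity score with lowered wild-type GFP, culture density cut under 30%, mutant RFP and density less affected; inactive = any of these conditions unmet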; also: one replicate is shown; some compounds called inactive have numbers as strong as hits
MLL AF4-AF9 inh: inhibitors of AF4 peptide binding to AF9, primary screen, biochemical, AlphaScreen, biotin-AF4 peptide, FLAG-AF9, single point. inhibition, % at 10 µM. 350,000 tested, 0.47% active;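 active = every replicate reaching a set inhibition limit, whatever the replicate mean, cut at about 25% in these data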;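 also: 0% = plate neutral control median and 100% = total signal loss; the record names both 10 and 1 µM as test concentration; the first replicate is given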
Target sequence (P42568 whole entry, looked up): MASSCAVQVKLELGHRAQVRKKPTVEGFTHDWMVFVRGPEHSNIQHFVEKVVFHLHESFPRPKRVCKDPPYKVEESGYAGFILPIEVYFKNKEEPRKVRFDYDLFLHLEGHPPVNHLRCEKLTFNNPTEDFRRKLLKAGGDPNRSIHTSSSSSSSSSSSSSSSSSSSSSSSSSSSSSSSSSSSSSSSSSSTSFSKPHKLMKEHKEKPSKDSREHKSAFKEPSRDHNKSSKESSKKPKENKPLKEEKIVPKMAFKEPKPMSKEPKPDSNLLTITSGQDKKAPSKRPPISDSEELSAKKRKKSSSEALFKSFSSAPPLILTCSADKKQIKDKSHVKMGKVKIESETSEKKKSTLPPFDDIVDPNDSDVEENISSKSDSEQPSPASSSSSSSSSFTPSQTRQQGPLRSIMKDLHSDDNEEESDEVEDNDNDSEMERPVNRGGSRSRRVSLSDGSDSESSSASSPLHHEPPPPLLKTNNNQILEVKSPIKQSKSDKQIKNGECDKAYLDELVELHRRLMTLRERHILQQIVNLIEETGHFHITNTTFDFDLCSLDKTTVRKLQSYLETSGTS
Ecoli rRNA inh OD600: also measured in Ecoli rRNA inh; calls as there; OD600 change, %; measured here: OD600 growth;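 optical density of the mix in the first replicate; 0 = DMSO median and -100 = no signal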
Ecoli rRNA inh RFP: further read-out of Ecoli rRNA inh, marked with its call; RFP signal change, %; measured here: RFP humanized mutant strains;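 first replicate; 0 = DMSO median and -100 = no signal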
* = called active by the depositor. An excerpt; the hit share may differ from the screen's.

Ecoli rRNA inh | MLL AF4-AF9 inh | Ecoli rRNA inh RFP | Ecoli rRNA inh OD600 | mol
2 | -11 | -5.2 | 11 | CO[C@H]1CN(C)C(=O)c2ccc(NC(=O)C3CCOCC3)cc2OC[C@@H](C)N(CC2CC2)C[C@H]1C
10 | -1.3 | 0.0 | 2 | C[C@H](CO)N1C[C@H](C)[C@@H](CN(C)C)Oc2ncc(C#CCN(C)C)cc2C1=O
-2 | -0.5 | -3.0 | 1 | C[C@H](CO)N1C[C@H](C)[C@H](CN(C)Cc2ccc(C(=O)Nc3ccccc3N)cc2)Oc2ccc(NC(=O)CCN3CCOCC3)cc2CC1=O
4 | -1.3 | -1.4 | 4 | C[C@@H]1CN([C@@H](C)CO)C(=O)c2cc(C#CC3CC3)cnc2O[C@@H]1CN(C)C
4 | -1.4 | 1.8 | 1 | C[C@@H]1CCCCO[C@@H](CN(C)CC2CCCCC2)[C@@H](C)CN([C@@H](C)CO)C(=O)c2cc(NS(=O)(=O)c3cn(C)cn3)ccc2O1
-5 | -1.4 | 0.5 | -1 | COc1ccc(NC(=O)c2cccc3c(-c4ccc(O)c(OC)c4)coc23)cc1
-57 | 1.9 | -8.7 | -70 | CC(C)C#Cc1ccc([C@@H]2[C@H]3CN(C(=O)Nc4ccccc4)CCCCN3[C@H]2CO)cc1
-3 | 1.0 | 1.7 | -5 | COc1cnc(-c2cccc(C(F)(F)F)c2)c(NC(=O)c2cc3ccccc3s2)n1
-2 | 2.8 | -2.1 | 5 | CO[C@H]1CC[C@H]2CCOc3ccc(C#N)cc3C(=O)N(C)C[C@@H](OC)[C@H](C)C(=O)N(C)C[C@@H]1O2
7 | 1.0 | -2.6 | 14 | COc1ccc(CN(C)C[C@H]2OCCCC[C@@H](C)Oc3ccc(NC(=O)C4CCCCC4)cc3C(=O)N([C@@H](C)CO)C[C@@H]2C)cc1

Record cards (already shown):
C[C@H](CO)N1C[C@H](C)[C@H](CN(C)Cc2ccc(C(=O)Nc3ccccc3N)cc2)Oc2ccc(NC(=O)CCN3CCOCC3)cc2CC1=O reads Ecoli rRNA inh = -2; MLL AF4-AF9 inh = -0.5; Ecoli rRNA inh RFP = -3.0; Ecoli rRNA inh OD600 = 1
COc1ccc(NC(=O)c2cccc3c(-c4ccc(O)c(OC)c4)coc23)cc1 reads Ecoli rRNA inh = -5; MLL AF4-AF9 inh = -1.4; Ecoli rRNA inh RFP = 0.5; Ecoli rRNA inh OD600 = -1
CO[C@H]1CC[C@H]2CCOc3ccc(C#N)cc3C(=O)N(C)C[C@@H](OC)[C@H](C)C(=O)N(C)C[C@@H]1O2 reads Ecoli rRNA inh = -2; MLL AF4-AF9 inh = 2.8; Ecoli rRNA inh RFP = -2.1; Ecoli rRNA inh OD600 = 5

(list continues)
Ecoli rRNA inh | MLL AF4-AF9 inh | Ecoli rRNA inh RFP | Ecoli rRNA inh OD600 | mol
-6 | 1.2 | -0.8 | -8 | C[C@H]1CN([C@@H](C)CO)C(=O)c2cc(NS(C)(=O)=O)ccc2O[C@@H]1CN(C)Cc1ccc(Cl)c(Cl)c1
1 | -0.7 | -0.1 | -5 | COc1ccccc1CCC(=O)Nc1ccc2c(c1)c(=O)n(C)n2Cc1ccc(F)cc1
-53 | -4.9 | -17 | -76 | OC(c1ccc(Cl)c(Cl)c1)c1ncc(-c2cccc(F)c2)[nH]1 (configuration not stated)
-3 | -4.1 | -4.0 | -2 | CNC(=O)C[C@@H]1CC[C@H]2[C@@H](COc3ccc(NC(=O)c4ccc(F)c(F)c4)cc3C(=O)N2C)O1
0 | 1.6 | -2.6 | 1 | C[C@@H]1CCCCO[C@H](CN(C)S(=O)(=O)c2ccc(Cl)cc2)[C@@H](C)CN([C@@H](C)CO)C(=O)c2cc(NC(=O)Nc3ccc(F)cc3)ccc2O1
1 | 0.9 | -1.6 | 3 | O=C(C[C@@H]1CC[C@H](NS(=O)(=O)c2ccc(F)cc2)[C@H](CO)O1)NCc1ccncn1
-1 | -0.4 | -0.2 | -3 | O=C(N[C@@H]1CC[C@@H](CCNS(=O)(=O)c2cccc(Cl)c2)O[C@H]1CO)c1ccncc1
-2 | 0.3 | 0.4 | -2 | O=C(NCC[C@@H]1CC[C@H](NS(=O)(=O)c2cccc(F)c2)[C@@H](CO)O1)C1CC1
2 | -2.0 | -0.4 | 8 | CN(C)CCCNC(=O)C[C@H]1CC[C@@H]2[C@H](COc3ccc(NC(=O)c4cccc(F)c4)cc3C(=O)N2C)O1
0 | -3.6 | 1.0 | 2 | O=C(C[C@@H]1CC[C@@H](NC(=O)CCN2CCCCC2)[C@@H](CO)O1)Nc1ccccc1
0 | -5.8 | 1.3 | -2 | Cc1ccc(S(=O)(=O)Nc2ccc3c(c2)C(=O)N([C@H](C)CO)C[C@@H](C)[C@@H](CN(C)C(=O)NC2CCCCC2)OCCCC[C@H](C)O3)cc1
1 | -2.3 | -0.3 | -6 | COCC(=O)NC[C@H]1[C@@H](c2ccc(C3=CCCC3)cc2)[C@@H](CO)N1C(C)=O
1 | -1.5 | -1.2 | 2 | CCCC(=O)Nc1ccc2c(c1)OC[C@H](C)N(Cc1cncnc1)C[C@H](C)[C@@H](OC)CN(C)C2=O
-4 | 1.0 | 10 | -23 | Cc1cccc(S(=O)(=O)N(C)C[C@@H]2OCc3ccccc3-c3ccccc3C(=O)N([C@@H](C)CO)C[C@@H]2C)c1
-4 | 6.7 | 6.5 | -4 | C[C@@H]1CN([C@@H](C)CO)S(=O)(=O)c2ccc(C#Cc3ccncc3)cc2O[C@@H]1CN(C)S(=O)(=O)c1ccccc1
-60 | 11 | -16 | -81 | CO[C@@H]1CN(C)C(=O)c2ccc(NC(=O)c3ccc(-c4ccccc4)cc3)cc2OC[C@@H](C)NC[C@H]1C
-24 | 2.2 | -3.5 | -25 | COc1cc(OC)c(N(C)S(=O)(=O)c2cccc(C(=O)Nc3nc(C)cs3)c2)cc1Cl
18 | -1.0 | 12 | 20 | O=C1NC[C@H](CCCCN2C[C@H](Cc3ccccc3)N(Cc3ccccc3)C(=O)C2=O)N(CCc2ccc(O)cc2)C1=O
-3 | -1.8 | 0.0 | -2 | C[C@H]1CN([C@@H](C)CO)C(=O)Cc2cc(NC(=O)C3CC3)ccc2O[C@H]1CN(C)Cc1ccc(-c2ccccc2)cc1
-3 | 5.6 | 0.9 | -10 | COc1ccc(S(=O)(=O)N(C)C[C@H]2Oc3ccc(NC(=O)Nc4ccc5c(c4)OCO5)cc3CC(=O)N([C@H](C)CO)C[C@H]2C)cc1
-2 | -17 | 4.9 | -9 | C[C@@H]1CCCCO[C@@H](CN(C)Cc2ccncc2)[C@H](C)CN([C@@H](C)CO)C(=O)c2cc(NC(=O)Nc3ccccc3)ccc2O1
4 | -8.5 | -3.4 | 2 | C[C@@H]1CN([C@@H](C)CO)C(=O)c2cccc(NC(=O)c3ccncc3)c2O[C@H]1CN(C)C(=O)Nc1ccc(F)cc1
0 | -1.2 | -1.5 | -3 | CNC[C@@H]1Oc2cc(C#CC(C)(C)O)ccc2S(=O)(=O)N([C@@H](C)CO)C[C@@H]1C
4 | -3.2 | -3.8 | -1 | C[C@@H]1CN([C@H](C)CO)C(=O)c2cc(-c3ccc(C(=O)N(C)C)cc3)cnc2O[C@H]1CN(C)Cc1ccc(C(=O)O)cc1
2 | -3.4 | -2.0 | 3 | CCNC(=O)[C@@H]1[C@@H](CO)[C@@H]2Cn3c(cccc3=O)[C@H]1N2Cc1cccc(Cl)c1
2 | -1.1 | -0.7 | 2 | Cn1nc(C(=O)NCC(=O)Nc2ccc(F)c(F)c2)ccc1=O
0 | 0.6 | -1.3 | 1 | CCCC(=O)Nc1ccc2c(c1)C(=O)N(C)[C@H]1CC[C@@H](CC(=O)Nc3ccccc3)O[C@H]1CO2
2 | 6.7 | 19 | -40 | C[C@H]1CN([C@@H](C)CO)C(=O)c2cc(NC(=O)c3ccncc3)ccc2O[C@H]1CN(C)Cc1ccc(-c2ccccc2)cc1
-1 | -17 | -2.3 | -1 | Cc1ccc(S(=O)(=O)Nc2ccc3c(c2)C(=O)N([C@H](C)CO)C[C@H](C)[C@H](CN(C)C(=O)NC(C)C)OCCCC[C@H](C)O3)cc1
0 | -12 | -0.3 | 0 | Cc1noc(C)c1NC(=O)N(C)C[C@@H]1Oc2ccc(NC(=O)Nc3ccc(F)cc3)cc2C(=O)N([C@@H](C)CO)C[C@H]1C
-29 | 9.9 | 20 | -50 | C[C@H](CO)N1C[C@H](C)[C@@H](CN(C)Cc2cccnc2)Oc2cc(C#CC3CC3)ccc2S1(=O)=O
8 | -11 | -0.1 | 14 | COc1ccc(S(=O)(=O)Nc2ccc3c(c2)C(=O)N([C@H](C)CO)C[C@@H](C)[C@H](CN(C)Cc2ccc(C(=O)O)cc2)OCCCC[C@@H](C)O3)cc1
-2 | 4.7 | 3.4 | -8 | C[C@@H]1CCCCO[C@H](CN(C)C(=O)Nc2ccc(F)cc2)[C@@H](C)CN([C@@H](C)CO)C(=O)c2cc(NS(=O)(=O)c3ccccc3)ccc2O1
0 | -1.4 | 0.2 | 4 | CC(C)NC(=O)Nc1ccc2c(c1)CC(=O)N([C@H](C)CO)C[C@@H](C)[C@@H](CN(C)S(=O)(=O)c1ccc(F)cc1)O2
-5 | 0.3 | -0.4 | -18 | CC(=O)N1[C@H](CO)[C@@H](c2ccc(-c3ccc(C#N)cc3)cc2)C12CN(C(=O)C1CC1)C2
-17 | 0.0 | -7.4 | -36 | C[C@@H]1CN([C@H](C)CO)S(=O)(=O)c2ccc(Br)cc2O[C@H]1CN(C)Cc1ccncc1
0 | 2.6 | -0.2 | -1 | C[C@H](CO)N1C[C@H](C)[C@@H](CN(C)C(=O)Nc2ccc(F)cc2)Oc2ccc(NC(=O)Nc3cccc4ccccc34)cc2CC1=O
16 | -1.3 | 0.6 | 14 | CN(CCc1ccccc1)C(c1cc2ccccc2o1)c1nnnn1C(C)(C)C (configuration not stated)
-5 | 0.7 | 5.4 | -8 | COc1ccccc1CNC(=O)C[C@H]1CC[C@H]2[C@@H](COC[C@@H](O)CN2Cc2cccc(-c3ccncc3)c2)O1
-10 | 0.9 | 4.5 | -5 | O=C(NCc1ccccc1)C1c2ccccc2OCC(=O)N1Cc1ccc2c(c1)OCO2 (configuration not stated)

Some values from the results shown.
For MLL AF4-AF9 inh, C[C@@H]1CN([C@H](C)CO)C(=O)c2cc(-c3ccc(C(=O)N(C)C)cc3)cnc2O[C@H]1CN(C)Cc1ccc(C(=O)O)cc1 is entered as -3.2
For Ecoli rRNA inh, CNC(=O)C[C@@H]1CC[C@H]2[C@@H](COc3ccc(NC(=O)c4ccc(F)c(F)c4)cc3C(=O)N2C)O1 is entered as -3

Carrying on.
Ecoli rRNA inh | MLL AF4-AF9 inh | Ecoli rRNA inh RFP | Ecoli rRNA inh OD600 | mol
2 | 0.7 | -1.3 | 4 | C[C@H]1CN([C@@H](C)CO)C(=O)c2cccc(NC(=O)C3CCOCC3)c2O[C@H]1CN(C)C(=O)Nc1ccccc1
13 | 1.8 | 3.9 | -3 | C=CCCC1CN(Cc2ccc(OC)cc2)S(=O)(=O)c2c(Oc3ccc(C)cc3)cccc2O1 (configuration not stated)
2 | -5.0 | -1.7 | 12 | COCC(=O)N1CC2(CN(S(C)(=O)=O)C2)c2c(n(C)c3cc(OC)ccc23)[C@@H]1CO
2 | -1.7 | -0.5 | 4 | COCCNC(=O)[C@@H]1[C@@H](CO)[C@@H]2Cn3c(cccc3=O)[C@H]1N2Cc1cc(F)ccc1F
3 | -2.2 | -1.9 | 8 | CN(C)C(=O)C[C@H]1CC[C@@H]2[C@H](COc3ccc(NC(=O)C4CCCC4)cc3C(=O)N2C)O1
2 | 1.7 | -2.2 | 4 | O=C(C1CCOCC1)N1CC(=O)N2[C@H](C1)[C@@H](c1ccc(C#CC3CCCC3)cc1)[C@@H]2CO
17 | -2.3 | 3.4 | 18 | O=C1NC[C@H](CCCCN2C[C@H](Cc3ccccc3)N(CCC3CCCCC3)C(=O)C2=O)N(Cc2ccccc2)C1=O
2 | -3.9 | -2.0 | 5 | C[C@H]1CN([C@@H](C)CO)C(=O)c2cc(-c3ccncc3)cnc2O[C@@H]1CN(C)C
20 | 6.4 | 5.0 | 13 | COCCCNCc1cc(C)n(-c2cc(S(=O)(=O)N3CCOCC3)ccc2N2CCCC2)c1C
5 | 3.6 | 2.8 | 9 | CC(C)=CCC/C(C)=C/CN1C(=O)N(c2ccc(F)cc2)[C@H]2C[C@@H](c3ccccc3)[C@@H](C)[C@@H](C(=O)N3CCOCC3)C[C@H]21
-2 | -0.7 | -1.4 | 0 | CCC(=O)N1CCCCN2[C@H](CO)[C@H](c3ccc(-c4ccc(F)cc4)cc3)[C@@H]2C1
0 | -3.4 | -2.0 | 2 | Cc1ccc(S(=O)(=O)N(C)C[C@H]2OCCCC[C@@H](C)Oc3ccc(NC(=O)Nc4cccc5ccccc45)cc3C(=O)N([C@@H](C)CO)C[C@H]2C)cc1
0 | -0.4 | 0.9 | 14 | N#C[C@H]1[C@H](c2ccccc2)[C@@H](CO)N1S(=O)(=O)c1cccc(F)c1
-34* | -1.5 | 4.1* | -10* | COC(=O)c1ccc2nc(-c3cccc(Br)c3)c(Cc3ccsc3)n2c1
-39 | 3.7 | 8.7 | -68 | C[C@@H]1CCCCO[C@@H](CN(C)CC2CCCCC2)[C@@H](C)CN([C@@H](C)CO)C(=O)c2cc(NS(=O)(=O)c3ccc(F)cc3)ccc2O1
1 | 0.1 | -3.2 | 1 | CCCNC(=O)Nc1ccc2c(c1)C(=O)N(C)[C@@H]1CC[C@H](CC(=O)NCCCN(C)C)O[C@@H]1CO2

Screening data deposited in PubChem by Broad Institute.
